FEN1 inhibitor: blocks human flap endonuclease 1. Recombinant FEN1 flap cleavage, fluorescence, 15 min. Potency, µM (series often up to 114 µM), for inactives: at the highest dose activity change, negative = inhibition, hits mostly inhibitors. 390,000 compounds, 0.35% hits; note: nearly all actives have a fitted effect of over 65% in size
Target sequence (P39748 whole entry, looked up): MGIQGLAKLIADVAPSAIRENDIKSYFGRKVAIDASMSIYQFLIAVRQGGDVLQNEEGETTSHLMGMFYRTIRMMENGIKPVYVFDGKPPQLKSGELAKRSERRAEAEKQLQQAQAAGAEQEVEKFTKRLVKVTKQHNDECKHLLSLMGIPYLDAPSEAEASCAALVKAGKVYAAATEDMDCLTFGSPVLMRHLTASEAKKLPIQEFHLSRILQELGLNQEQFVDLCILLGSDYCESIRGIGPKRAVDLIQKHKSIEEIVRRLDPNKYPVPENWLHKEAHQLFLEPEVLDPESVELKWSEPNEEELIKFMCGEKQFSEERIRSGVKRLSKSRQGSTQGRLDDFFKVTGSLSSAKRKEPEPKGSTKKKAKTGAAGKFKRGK
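Reaction started by adding substrate (50 nM final) to 10 nM enzyme after 15 min room-temperature compound preincubation. Reads at 0 and 15 min, with data normalized and fitted to a four-parameter Hill equation.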
KAT2A inh: inhibitors of human GCN5L2 histone acetyltransferase. GCN5L2 HAT assay, ThioGlo1 CoA-SH fluorescence. Potency, µM (series often up to 58.9 µM), for the others: at the highest dose activity change, negative = inhibition, hits mostly inhibitors. 390,000 compounds, 0.21% hits. AID 504327
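Compounds, pin-transferred from DMSO stocks, meet 20nM GCN5L2 for 15 min before the reaction begins with H3(1-25) peptide (75uM) and acetyl-CoA (70uM). Thiol-reactive ThioGlo1 reports CoA release over 20 min at room temperature.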
An asterisk follows results filed as active; x = no result given; & = joins results of further samples; [ ] = another dose, or the depositor's remark. Calls come from the whole dose curve; as a rule, active = well fitted curve in the direction sought with a large enough effect; inconclusive = small, poorly fitted or top-dose-only effect, or another doubt; inactive = no such curve, though single readings can be large; an effect the other way counts as inactive or inconclusive. % is set by controls: 0 for no effect and ±100 for the full control effect; potency is the fitted concentration of half-maximal effect. An excerpt, and most or all hits are left out here.

smiles	FEN1 inhibitor	KAT2A inh
Cc1cc(NC(=O)c2ccc(NC(=O)CCS(=O)(=O)c3cccs3)cc2)ccc1Br	1%	3%
Cc1cc(C)c2cc(C(O)c3nnnn3Cc3ccccc3)c(=O)[nH]c2c1 (configuration not stated)	1%	-4%
O=S(=O)(c1cccc(S(=O)(=O)N2CCC(Cc3ccccc3)CC2)c1)N1CCOCC1	-12%	-1%
CCOc1ccc(NC(=O)CCc2c(C)nn(-c3ccc(N4CCCC4)nn3)c2C)cc1	1%	-5%
COc1ccc(CN2C(=O)CS/C2=N/N=C/c2ccccc2)cc1	-15%	-23%
Cc1cccc(CNc2ncncc2-c2cccc(C#N)c2)c1	x	-3%
CC(=O)C1=C(O)C(=O)N(CCCn2ccnc2)C1c1ccc(Cl)cc1 (configuration not stated)	-3%	-14%
COc1ccc(NC(=O)CSc2nnc(CCC(=O)Nc3ccc(C)c(Cl)c3)n2C)cc1	-8%	-3%
CCOC(=O)CSc1nc2ccccc2c(=O)n1C	-6%	-2%
Cc1ccc(Cn2c(=O)n(Cc3ccco3)c(=O)c3ccccc32)cc1	14%	1%
Cc1noc(C)c1S(=O)(=O)Nc1ccccc1Cl	-18%	0%
CCCc1c(C(=O)N/N=C/c2c(OC)ccc3ccccc23)nnn1-c1nonc1N	-13%	-7%
O=C(OCc1cccs1)c1ccccc1NS(=O)(=O)c1ccc2c(c1)OCCO2	-3%	-9%
Cc1nccn1Cc1cccc2ccccc12	-7%	-3%
O=C(COC(=O)c1cc(=O)[nH]c2ccccc12)Nc1nc(-c2cccc(Br)c2)cs1	-11%	-3%
N#C/C(=C/c1ccc(C(=O)O)cc1)C(=O)NCc1ccccc1	-12%	-9%
Cc1ccc(-n2ccnc(SCC(=O)NC3CCCC3)c2=O)cc1F	6%	-7%
COC(=O)c1ccc(COc2ccc3c(C)c(C)c(=O)oc3c2C)o1	10%	1%
COc1ccc(C(OC(=O)c2ccco2)C(=O)NCc2ccco2)cc1 (configuration not stated)	-8%	-9%
COC(=O)CC(NC(=O)c1ccco1)c1cccc2ccccc12 (configuration not stated)	-12%	-7%
COc1cc(OC)c2c(c1)S(=O)(=O)C(c1ccccc1)=C2N	12%	-7%
Cc1noc(C)c1COc1ccc(C(=O)Nc2nnc(CC(C)C)s2)cc1	-3%	2%
Cn1c(-c2ccc3c(c2)OCO3)cnc1NCc1cccc(Cl)c1	14%	1%
CC1(c2ccccc2)CC(C)(C)N(C(=O)C2CCCO2)c2ccccc21 (configuration not stated)	-20%	-12%
Cc1nn(-c2ccccc2)c2nc3c(cc12)C(=O)CCC3	-3%	-5%
c1ccc2c(c1)Cc1cc(CN3CCOCC3)ccc1-2	-10%	2%
Cc1ccc(Sc2ccc(C(=O)N(C)C)cc2[N+](=O)[O-])cc1	-10%	4%
CCOC(=O)[C@@H]1[C@H]2COc3ccc(Br)cc3[C@@H]2N2C(=O)N(c3ccc(OC)cc3)C(=O)[C@]12C	4%	-7%
Fc1ccc(N2CCN(C(c3cccs3)c3nnnn3C3CCCC3)CC2)cc1 (configuration not stated)	-3%	-3%
CCCCn1ccnc1C(=O)c1cccc(S(=O)(=O)N2CC(C)CC(C)C2)c1 (configuration not stated)	-10%	-13%
Cc1ccc(N(C)S(=O)(=O)c2ccc3c(c2)C(C)(C)C(=O)N3C)cc1C	-17%	-13%
OCCC1CN(Cc2ccc3c(c2)CCO3)CCN1Cc1ccc(F)cc1 (configuration not stated)	-15%	2%
O=C(CSc1nnnn1C1CC1)Nc1ccc(S(=O)(=O)N2CCOCC2)cc1	-4%	4%
CCOc1ccccc1N(CC)C(=O)c1ccc2c(=O)n3c(nc2c1)CCCCC3	15%&11%	-9%&5%
Cc1ccc(C(=O)C[n+]2cc(Br)cc(Br)c2)cc1	1%	-28%
CCc1c(C)sc2c1CCN(Cc1ccccc1F)C2c1ccccc1 (configuration not stated)	2%	-6%
O=C(NC(CO)C(O)c1ccc([N+](=O)[O-])cc1)C(Cl)Cl (configuration not stated)	-6%	8%&-2%
CC(=O)c1sc(NC(=O)CCCOc2ccccc2C)nc1C	-1%	-8%
CCOc1ccc(-n2c(=O)c3c(C)c(C)sc3n(CC(=O)NCCc3ccccc3)c2=O)cc1	15%	-2%
O=C(N/N=C/c1c(Cl)cccc1Cl)c1ccccc1F	4%	-4%
CCN(CC)C(=O)C1CCN(C(=O)c2cnn(-c3ccccc3)c2-n2cccc2)CC1	16%	-2%
COc1ccc(NC(=O)COC(=O)c2cc(Cl)ccc2O)cc1S(=O)(=O)N1CCCCC1	-4%	0%
COC(=O)c1cc(-c2ccc(Cl)cc2Cl)n[nH]1	1%	-6%
CCCCCC(=O)NC(=S)Nc1ccc(Cl)cn1	-17%	-4%
Cc1ccc(C2=Nn3c(COc4ccc(Cl)cc4)nnc3SC2CC(=O)O)cc1 (configuration not stated)	-1%	-5%
CC(=O)c1c(C)nn(CCC(=O)O)c1C	-8%	1%
N#C/C(=C/c1ccc(Cl)cc1Cl)c1nc2ccccc2c(=O)[nH]1	-1%	2%
CCOC(=O)C1=C(C)Nc2nnnn2C1c1ccccc1Cl (configuration not stated)	-1%	1%
C[C@H](CO)N1C[C@H](C)[C@@H](CN(C)CC2CC2)Oc2c(NC(=O)Cc3ccccc3)cccc2C1=O	-8%	0%
COc1ccc(-c2cc(C(=O)NC3=NCCS3)c3ccccc3n2)cc1OC	9%	-13%
COc1ccc(S(=O)(=O)N(C)CC(=O)NC2CCCC2)cc1Cl	8%	-1%
CCCCC(=O)NNC(=S)NCc1ccccc1	1%	0%
O=C1C(NS(=O)(=O)c2cccs2)=C(N2CCN(c3ccccc3)CC2)C(=O)c2ccccc21	-6%	-7%
COc1ccccc1N(CN1CCCC1=O)C(=O)COc1ccccc1	-1%	0%
O=C(COC(=O)C1CC1)NCc1ccccc1	-16%	-13%
CC(=O)C1C(c2ccc(F)c(F)c2)NC(=O)NC1(O)C(F)(F)F (configuration not stated)	8%	-3%
O=c1c2c(-c3ccc(Cl)cc3)ccnc2[nH]n1-c1ccccc1	-9%	-8%
Brc1cccc(-c2nnn3c2nc(N2CCCCC2)c2ccccc23)c1	3%	-1%
O=C(C1CCC1)N1CCC(O)(c2cccc(F)c2)CC1	-8%	0%
O=C(/C=C/c1ccccc1)NCCC1=CCCCC1	-22%	16%

Continued:
smiles	FEN1 inhibitor	KAT2A inh
Cc1ccc(NC(=O)/C=C/c2ccc(Cl)cc2)nc1	5%	1%
COc1ccc(C(=O)N=S2CCN(C(=O)c3ccc(Cl)cc3)CC2)cc1	-7%	0%
COc1cc(OC)cc(C(=O)NCCCNC(=O)c2ccccn2)c1	18%	4%
O=C(CSc1nc2ccccc2[nH]1)c1ccco1	-3%	-4%
CCS(=O)(=O)c1nc(S(=O)(=O)c2ccc(C)cc2)c(NCCCN2CCOCC2)s1	-5%	-7%
O=C(CCn1cccn1)Nc1ccc(Br)cc1F	-12%	36%[activator]
CC1(C)CC(=O)C2=C(C1)NC(=O)CC2c1cc2c(cc1Br)OCO2 (configuration not stated)	-3%	-2%
Cc1cc(C)n2nc(C(=O)Nc3ccc(S(=O)(=O)N(C)C)cc3)nc2n1	-2%	-3%
O=C(N/N=C/c1ccccc1)c1cc(-c2ccc3c(c2)OCO3)n[nH]1	-11%	-11%
CCCN(CCC)C(=O)CSc1nnc2cc(C)c3ccccc3n12	-4%	-9%
CCOC(=O)c1nccnc1C(=O)Nc1cccc(C(F)(F)F)c1	-1%	-6%
COC(=O)c1ccc(OCC(=O)c2ccccc2OC)cc1	0%	2%
Cc1cccc2cc(CN(CC3CCCO3)C(=O)NC3CCCCC3)c(=O)[nH]c12 (configuration not stated)	8%	-3%
Cc1ccc2c(CC(=O)Nc3nnc(C(C)C)s3)coc2c1C	-1%	1%
CN(C)S(=O)(=O)c1ccc(-c2csnn2)s1	-10%	-5%

A stretch of the results above, for reference:
smiles	FEN1 inhibitor	KAT2A inh
O=c1c2c(-c3ccc(Cl)cc3)ccnc2[nH]n1-c1ccccc1	-9%	-8%
Brc1cccc(-c2nnn3c2nc(N2CCCCC2)c2ccccc23)c1	3%	-1%
O=C(C1CCC1)N1CCC(O)(c2cccc(F)c2)CC1	-8%	0%
O=C(/C=C/c1ccccc1)NCCC1=CCCCC1	-22%	16%
Cc1ccc(NC(=O)/C=C/c2ccc(Cl)cc2)nc1	5%	1%
COc1ccc(C(=O)N=S2CCN(C(=O)c3ccc(Cl)cc3)CC2)cc1	-7%	0%
COc1cc(OC)cc(C(=O)NCCCNC(=O)c2ccccn2)c1	18%	4%
O=C(CSc1nc2ccccc2[nH]1)c1ccco1	-3%	-4%
CCS(=O)(=O)c1nc(S(=O)(=O)c2ccc(C)cc2)c(NCCCN2CCOCC2)s1	-5%	-7%
O=C(CCn1cccn1)Nc1ccc(Br)cc1F	-12%	36%[activator]
CC1(C)CC(=O)C2=C(C1)NC(=O)CC2c1cc2c(cc1Br)OCO2 (configuration not stated)	-3%	-2%
Cc1cc(C)n2nc(C(=O)Nc3ccc(S(=O)(=O)N(C)C)cc3)nc2n1	-2%	-3%
O=C(N/N=C/c1ccccc1)c1cc(-c2ccc3c(c2)OCO3)n[nH]1	-11%	-11%
CCCN(CCC)C(=O)CSc1nnc2cc(C)c3ccccc3n12	-4%	-9%
CCOC(=O)c1nccnc1C(=O)Nc1cccc(C(F)(F)F)c1	-1%	-6%
COC(=O)c1ccc(OCC(=O)c2ccccc2OC)cc1	0%	2%
Cc1cccc2cc(CN(CC3CCCO3)C(=O)NC3CCCCC3)c(=O)[nH]c12 (configuration not stated)	8%	-3%
Cc1ccc2c(CC(=O)Nc3nnc(C(C)C)s3)coc2c1C	-1%	1%
CN(C)S(=O)(=O)c1ccc(-c2csnn2)s1	-10%	-5%

(listing goes on)
smiles	FEN1 inhibitor	KAT2A inh
O=C(O)CC1Sc2nnc(COc3ccc(Cl)cc3)n2N=C1c1ccccc1 (configuration not stated)	-2%	-3%
Cc1cccc(C(=O)Nc2ccnc(-c3cccnc3)n2)c1	-9%	5%
CCOc1nc(NC(=O)NC(=O)c2ccccc2)nc(-c2ccccc2)n1	-1%	19%
CCOc1cc(S(=O)(=O)N(CC)CC)ccc1F	-8%	-3%
Cc1nnc(N(CCC#N)CCC#N)s1	0%	-8%
COC(=O)c1nc(-c2ccccc2)oc1N1CCOCC1	8%	-8%
CCOc1cc(C(=O)OCC(=O)c2cc(C)n(CC3CCCO3)c2C)ccc1OCC(=O)N1CCOCC1 (configuration not stated)	-16%	-1%
NC(=O)CC(NC(=O)Cc1cccc2ccccc12)c1ccc(N2CCC(Br)CC2)c([N+](=O)[O-])c1 (configuration not stated)	-4%	-10%
NC(=O)C1CCN(C(=S)c2cccs2)CC1	3%	0%
CC1=Nn2c(nc(-c3ccccc3)c2-c2ccccc2)NC(=O)C1Br (configuration not stated)	0%	0%
CCC(COC)NCc1cn(-c2ccc(F)cc2F)nc1-c1ccccc1C (configuration not stated)	7%	4%
C=CCOc1ccc(CNc2ccc(NC(=O)CCC)cc2)cc1OCC	6%	0%
O=C(CCN1CCN(CC(=O)Nc2ccccc2Cl)CC1)Nc1ccccc1F	-8%	-2%
CCCN(CCC)S(=O)(=O)c1ccc(NS(=O)(=O)c2ccc(F)cc2)cc1	-2%	-5%

Assay outcomes from PubChem.
